gsp ag: agonists of gsp mutant (McCune-Albright syndrome). gsp mutant cells, cAMP HTRF, 30 min; control for the full effect not named in the record. Potency, µM (titrated, usually from 76.9 µM), inactives show top-dose activation (cAMP increase), most hits filed as activators. 0.13% of 340,000 active. AID 624287; active = well fitted activation curve with a large enough effect; inconclusive = small, poorly fitted or top-dose-only effect, or another doubt; inactive = no such curve, though single readings can be large or run the other way; cell line not stated here;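 further: phosphodiesterase inhibitor Ro 20-1724 added with compounds to block cAMP breakdown; potency means the concentration at half of the fitted maximal effect; nearly all actives have a fitted effect of over 60% in size; about a fifth of the inactives were tested at one dose only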
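Cells in DMEM/10% FBS with G418 were pretreated with compounds in DMSO plus […] (300 uM stock) for 30 min at 37C. cAMP was measured by HTRF (cAMP-d2 plus anti-cAMP antibody-K) after 30 min at room temperature.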
Sfp inh: inhibitors of Bacillus subtilis Sfp phosphopantetheinyl transferase. Q9F4F7. 3.5% of 310,000 active. Biochemical Sfp PPTase activity, qHTS. Potency, µM, for inactives: max response, negative = inhibition, usual class: inhibitors; active means well fitted inhibition curve with a large enough effect; inconclusive means small, poorly fitted or top-dose-only effect, or another doubt; inactive means no such curve, though single readings can be large or run the other way;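 further: the enzyme is Sfp with the accession as filed and its product quenches rhodamine fluorescence; potency means the concentration at half of the fitted maximal effect; 0% = enzyme reaction without inhibitor and -100% = no enzyme wells; top concentration of the series not given in the record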
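Fluorescence-quenching assay with 15 nM Sfp, 5 uM rhodamine-CoA and 12.5 uM BHQ-2-labelled ybbR peptide in pH 7.6 Hepes/MgCl2 buffer. Enzyme was pre-incubated with compound for 15 min at room temperature. Rate was taken from the 30-min fluorescence change (525/598 nm).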
gsp antag: gsp mutant antagonism; gsp-mutant cells, cAMP HTRF, 30 min; control for the full effect not named in the record; Potency, µM (titrated, usually from 76.9 µM), without a hit: at the highest dose activity change, negative = inhibition, hits mostly inhibitors; 0.4% of 340,000 active; AID 624288; active = falling curve of any shape with a large fitted effect; inconclusive = falling curve, mostly with a smaller effect; inactive = flat or rising curve; cell line not stated here;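 further: intracellular cAMP measured with PDE inhibitor Ro 20-1724 present during compound exposure; potency means the concentration at half of the fitted maximal effect; on the % scale 0 is the no-effect control and ±100 the full control effect; nearly all actives have a fitted effect of over 65% in size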
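G418-selected cells were plated in DMEM/10% FBS for 16-24 h at 37C, then treated with compounds plus the PDE inhibitor […] (300 uM solution added) for 30 min at 37C. Intracellular cAMP was measured by HTRF after 30 min lysis at room temperature.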
TRPV1 potentiator: enhances activation of the human vanilloid receptor TRPV1; Q8NER1; TRPV1-expressing cells, Fluo-8 calcium influx, capsaicin EC20 potentiation; host cell line not named in the record; control for the full effect not named in the record; potentiation, % at 8.33 µM; 0.02% of 320,000 active; AID 540277; active means potentiation above 80%; inconclusive means 30% to 80%; inactive means below 30%; further: 0% is about no effect
Target sequence (Q8NER1 whole entry, looked up): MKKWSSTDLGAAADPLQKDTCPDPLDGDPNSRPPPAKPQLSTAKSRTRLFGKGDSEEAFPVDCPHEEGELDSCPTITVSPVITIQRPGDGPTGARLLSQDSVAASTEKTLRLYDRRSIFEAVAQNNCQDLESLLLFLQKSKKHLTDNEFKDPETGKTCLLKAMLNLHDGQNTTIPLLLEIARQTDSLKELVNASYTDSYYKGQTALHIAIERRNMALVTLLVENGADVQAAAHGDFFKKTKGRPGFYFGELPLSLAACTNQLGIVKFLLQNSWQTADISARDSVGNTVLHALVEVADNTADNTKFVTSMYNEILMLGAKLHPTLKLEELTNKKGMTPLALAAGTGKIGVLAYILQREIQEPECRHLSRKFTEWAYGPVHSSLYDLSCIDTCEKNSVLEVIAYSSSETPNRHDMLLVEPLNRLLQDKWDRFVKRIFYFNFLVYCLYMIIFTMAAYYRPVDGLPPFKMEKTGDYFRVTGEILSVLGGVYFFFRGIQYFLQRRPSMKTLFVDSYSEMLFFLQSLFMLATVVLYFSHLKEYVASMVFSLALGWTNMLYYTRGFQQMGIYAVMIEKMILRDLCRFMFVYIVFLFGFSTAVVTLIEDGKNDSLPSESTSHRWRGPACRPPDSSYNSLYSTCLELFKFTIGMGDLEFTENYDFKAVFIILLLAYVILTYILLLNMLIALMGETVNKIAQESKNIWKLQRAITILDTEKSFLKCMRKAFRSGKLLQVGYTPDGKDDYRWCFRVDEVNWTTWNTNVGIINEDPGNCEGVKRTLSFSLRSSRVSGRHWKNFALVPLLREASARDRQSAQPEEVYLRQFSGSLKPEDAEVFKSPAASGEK
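TRPV1-expressing cells were cultured overnight at 35.5C and loaded with Fluo-8 calcium dye for 40 to 90 min at room temperature. After a 10 s baseline, compound was added and calcium influx was read kinetically for 3 min (ex 480/em 520 nm).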
TRPML1 inh: inhibitors of human TRPML1 channel; activity change, negative = inhibition, % (test concentration not listed); 0.02% of 390,000 active; TRPML1-inducible cells, Ca2+ dye fluorescence, FDSS; hits give low values; inhibition of EC80 agonist-evoked calcium signal; Q9GZU1; in the data active means activity change below about -50%; inconclusive means about -30% to -50%; inactive means above about -30%;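 further: stimulus is agonist 54-4 at its EC80 concentration; on the % scale 0 is the no-effect control and ±100 the full control effect; compound concentration not given in the record; the text of the record puts the active cut at -80%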
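Tet-induced TRPML1-DL cells loaded with Ca8 no-wash calcium dye were read kinetically on FDSS. Compound addition was followed by EC80 agonist 54-4 (4 uM final); inhibition was read over 110 s.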
Menin MLL FP FL: menin-MLL binding inhibition, fluorescein peptide. Fluorescence polarization, fluorescein-MLL peptide displacement from menin. FP activity change, % at 61.4 µM. 290,000 tested, under 10 active. AID 1766; inconclusive = falling polarisation curve, or a change in total fluorescence; inactive = total fluorescence flat and polarisation flat or rising; no compound was filed as active; the % refers to the polarisation; negative = inhibition;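 further: % of control where 0% means no effect; inhibitors lower the polarisation; unlabelled MLL peptide was the positive control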
ClpP mod: qHTS Assay for Activators of ClpP; ATP-dependent Clp protease proteolytic subunit (Bacillus subtilis (strain 168)), P80244; purified B. subtilis ClpP, FRET peptide cleavage, 20 min; Potency, µM (titrated, usually from 57.5 µM), for the others: at the top dose activity change, negative = active; 1.9% of 340,000 active; AID 651965, 2013; active = well fitted falling curve with a large enough effect; inconclusive = small, poorly fitted or top-dose-only effect; inactive = no such curve, though single readings can be large or run the other way; further: potency means the concentration at half of the fitted maximal effect; the source files actives as falling curves though it sought activators and does not explain the sign; nearly all actives have a fitted effect of over 65% in size; many hits overshoot -100%
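Buffer: 100 mM Tris/HCl pH8, 100 mM KCl, 0.05% low protease BSA, 2.5% glycerol, 0.01% Tween-20. ClpP 10 microg/mL final; 20 min RT; delta FRET normalized to ADEP and DMSO controls.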
Numbers without * were called inactive; ? = inconclusive; nt = not tested or not shown; & = joins results of further samples; [ ] = remark or other dose.

[1] O=C(CC1SC(N2CCCC2)=NC1=O)Nc1ccc(C(=O)NCCc2ccc(F)cc2)cc1 (configuration not stated)
[2] COc1cc(C)ccc1OCc1cc(C(=O)N(C)CCCN2CCOCC2)no1
[3] Cc1cc(S(=O)(=O)N2CCCC2C(=O)N2CCOCC2)c(C)cc1Cl (configuration not stated)
[4] CN(CCc1ccccc1)C(=O)c1cc(COc2cccc(C(F)(F)F)c2)on1
[5] CC(=O)C1=C(C)NC(C)=C(C(C)=O)C1c1cn(-c2ccccc2)nc1-c1cccs1
[6] COc1ccccc1-n1c(SCC(=O)N2CCc3ccccc32)nc2c(c1=O)SCC2
[7] O=C(CNS(=O)(=O)c1ccccc1)NCC(=O)OCc1ccc(Br)cc1
[8] Cc1ccccc1Nc1nnc(C)c(=O)[nH]1
assay / compound,1,2,3,4,5,6,7,8
gsp ag,2%[15.4 µM],11%,-38%[inhibitor],18%,-31%[inhibitor],?,2%,13%
Sfp inh,nt,3%,13%,4%,8%,79µM*,7%,6%
gsp antag,-3%,-5%,-11%,-1%,-21%,4%,-7%,1%
TRPV1 potentiator,4,-3,0,-5,4,?,-4,-10
TRPML1 inh,31,-2,-6,45,-6,8,32,-11
Menin MLL FP FL,nt,-3.7,1.6,1.4,4.5,4.4,-1.5,4.7
ClpP mod,0.6%,-3.4%,-0.1%,0.5%,-3.3%,-1.1%,1.0%,-0.7%

Compound profiles (already shown). Order of screens: gsp ag	Sfp inh	gsp antag	TRPV1 potentiator	TRPML1 inh	Menin MLL FP FL	ClpP mod
Profile of CN(CCc1ccccc1)C(=O)c1cc(COc2cccc(C(F)(F)F)c2)on1 = 18%	4%	-1%	-5	45	1.4	0.5%
Profile of O=C(CC1SC(N2CCCC2)=NC1=O)Nc1ccc(C(=O)NCCc2ccc(F)cc2)cc1 (configuration not stated) = 2%[15.4 µM]	nt	-3%	4	31	nt	0.6%
Profile of CC(=O)C1=C(C)NC(C)=C(C(C)=O)C1c1cn(-c2ccccc2)nc1-c1cccs1 = -31%[inhibitor]	8%	-21%	4	-6	4.5	-3.3%
Profile of Cc1ccccc1Nc1nnc(C)c(=O)[nH]1 = 13%	6%	1%	-10	-11	4.7	-0.7%
Profile of COc1ccccc1-n1c(SCC(=O)N2CCc3ccccc32)nc2c(c1=O)SCC2 = ?	79µM*	4%	?	8	4.4	-1.1%

(more compounds)
[9] Cc1cc(C)nc(N(C#N)Cc2cccc3ccccc23)n1
[10] O=C(/C=C(\O)c1ccccc1)C(=O)NNC(=O)c1ccccc1[N+](=O)[O-]
[11] C=CCSc1nnc2c(n1)[nH]c1c(C)cccc12
[12] O=C(CCCn1c(SCC(=O)NCCc2ccccc2)nc2ccccc2c1=O)NCC1CCCO1 (configuration not stated)
[13] CC(=O)Nc1ccc(S(=O)(=O)NCCc2csc(C)n2)cc1
[14] O=C(O)c1cscc1Cc1cccs1
[15] Cc1cc(C)cc(NS(=O)(=O)c2ccc3[nH]cc(C(=O)NCc4ccco4)c(=O)c3c2)c1
[16] C=CCSc1nnc2nc3c(nn12)c1cc(C)ccc1n3CC=C
assay / compound,9,10,11,12,13,14,15,16
gsp ag,6%,1%,?,-1%[15.4 µM],7%,26%,12%,-30%
Sfp inh,-2%,20%,-10%,4%,14%,nt,?,4%
gsp antag,-16%,11%,-6%,1%,6%,nt,-23%,-8%
TRPV1 potentiator,-7,3,-26,25,?,nt,29,1
TRPML1 inh,31,12,10,-20,10,-14,-3&-15,7
Menin MLL FP FL,4.3,3.7,19,-1.4,6.0,nt,1.5,-0.4
ClpP mod,0.0%,-0.4%,-15%,-2.2%,0.3%,1.0%,?,1.7%

Looked up above:
no. 9 in Menin MLL FP FL = 4.3
no. 14 in gsp ag = 26%
no. 11 in ClpP mod = -15%
no. 10 in TRPML1 inh = 12

(next part)
[17] N#CCC(=O)N/N=C/c1cn(Cc2ccc(Cl)cc2Cl)c2ccccc12
[18] COc1ccc(-c2cn3c(C)c(C(=O)N4CCN(c5ccccc5F)CC4)sc3n2)cc1
[19] COc1cccc(NC(=O)Cn2c(-c3cncs3)nc3ccccc32)c1
[20] COc1ccc(C(=O)NCCCN2CCN(CCCNC(=O)c3ccc(OC)c(OC)c3)CC2)cc1OC
[21] CN(Cc1ccccc1Cl)C(=O)CNC(=O)C12CC3CC(CC(C3)C1)C2
[22] CCN(CC)C(=O)[C@H]1CC(CC(=O)NCc2cccc(C(F)(F)F)c2)C(=O)N2CCc3c([nH]c4ccc(OC)cc34)[C@]12C (some centres not stated)
[23] COc1ccc(N=C2S/C(=C\c3cc(C)n(C)c3C)C(=O)N2C)cc1
[24] NC(=O)Cn1nc2sc3ccccc3n2c(=O)c1=O
assay / compound,17,18,19,20,21,22,23,24
gsp ag,14%[15.4 µM],10%,3%,8%[15.4 µM],-39%[inhibitor],nt,18%,nt
Sfp inh,-7%,8%,10%,nt,nt,nt,-19%,10%
gsp antag,3%,-13%,3%,6%,-15%,-22%,-11%,nt
TRPV1 potentiator,nt,-17,27,18,nt,nt,nt,7
TRPML1 inh,43,2,-9,26,-2,-9,5,nt
Menin MLL FP FL,-3.2,11,-0.2,nt,nt,nt,14,1.8
ClpP mod,nt,-1.0%,8.9µM*,nt,3.0%,-0.4%,-19%,nt

Exported with tabs: entries from further up
item	compound	gsp ag	Sfp inh	gsp antag	TRPV1 potentiator	TRPML1 inh	Menin MLL FP FL	ClpP mod
6	COc1ccccc1-n1c(SCC(=O)N2CCc3ccccc32)nc2c(c1=O)SCC2	?	79µM*	4%	?	8	4.4	-1.1%
7	O=C(CNS(=O)(=O)c1ccccc1)NCC(=O)OCc1ccc(Br)cc1	2%	7%	-7%	-4	32	-1.5	1.0%
8	Cc1ccccc1Nc1nnc(C)c(=O)[nH]1	13%	6%	1%	-10	-11	4.7	-0.7%
9	Cc1cc(C)nc(N(C#N)Cc2cccc3ccccc23)n1	6%	-2%	-16%	-7	31	4.3	0.0%

Other results follow.
[25] O=C(O)C1=C(OCc2ccccc2)C(=O)NCC1
[26] O=C(CN1CCc2ccccc2C1)Nc1cccc(S(=O)(=O)N2CCOCC2)c1
[27] O=C(CSc1ncnc2[nH]ncc12)Nc1cccc(Oc2ccccc2)c1
[28] O=C(CNCc1ccco1)Nc1cc(S(=O)(=O)N2CCOCC2)ccc1N1CCCC1
[29] COc1ccc(N(CC(=O)Nc2cccnc2)S(=O)(=O)c2ccccc2)cc1OC
[30] O=C(Nc1ccncc1)c1ccc([N+](=O)[O-])cc1Cl
[31] CCN(CC)C(=O)CSc1ncnc2c1nnn2-c1ccc(F)cc1
[32] COc1ccc(NC(=O)CCc2nc(-c3ccccc3F)no2)cc1
[33] Cc1ccc(OCC(=O)Nc2ccc(S(=O)(=O)N3CCOCC3)cc2)c(C)c1
[34] Cc1ccc(Nc2nc(CSc3nnnn3C)cs2)cc1
[35] O=C(NNC(=O)c1ccco1)c1cccc([N+](=O)[O-])c1
assay / compound,25,26,27,28,29,30,31,32,33,34,35
gsp ag,16%,-6%,?,3%,12%,-12%[15.4 µM],13%,-38%[inhibitor],13%,-31%[inhibitor],?
Sfp inh,1%,nt,2%,-25%,13%,6%,18%,2%,12%,-27%,9%
gsp antag,3%,3%,-16%,-3%,8%,5%,-2%,-11%,4%,-7%,4%
TRPV1 potentiator,-16,-1,-9,4,4,-26,-3,11,-10,-8,2
TRPML1 inh,-22,-12,26,-6,-3,-3,1,-26,33,5,1
Menin MLL FP FL,-4.1,nt,4.3,0.1,12,1.9,0.0,2.7,-1.8,2.2,1.2
ClpP mod,nt,-1.5%,nt,-3.6%,nt,-1.2%,0.0%,-1.5%,nt,0.3%,0.7%

Screening results (PubChem BioAssay)
